Bioassay records: PubChem, National Center for Advancing Translational Sciences (NCATS)
Prx2 Sm inh – blocks S. mansoni peroxiredoxin 2 enzymatic activity; S. mansoni Prx2 activity coupled to TGR/GSH (TGR is thioredoxin glutathione reductase), NADPH fluorescence loss, qHTS; some inactives read as strong as hits; Potency, µM; AID 448; 0.07% of 65,000 active; active means full or partial inhibition curve with a strong effect at the top dose; inconclusive means weaker partial or single-point curve; inactive means no accepted curve; note: series up to 57 µM; many of its hits are not listed in these tables
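Prx2 inhibition was measured as reduced NADPH consumption when electrons flowed from NADPH through TGR and glutathione to Prx2 and H2O2. Plates were read kinetically over 8 min; enzyme reagents were held at 4 deg C during dispensing.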
LT uptake inh – blocks cellular internalization of anthrax lethal toxin; Potency, µM (series often up to 40 µM), for the others: top-dose activity change, negative = inhibition, hits mostly inhibitors; 0.67% of 70,000 active; Cells, anthrax lethal toxin internalization, FRET ratio (460/530); active = well fitted falling ratio curve with the 530 nm signal flat; inconclusive = other ratio curves, or a change in one channel alone; inactive = flat curves in the ratio and both channels; the % refers to the ratio; note: % is set by controls: 0 for no effect and ±100 for the full control effect; nearly all actives have a fitted effect of over 50% in size; tested in ME-180 cells; beta-lactamase reporter
Active calls of the source: *; ? = inconclusive; nt = not tested or not shown; [ ] = another dose, or the depositor's remark. Potency is the fitted concentration of half-maximal effect.

SMILES	Prx2 Sm inh	LT uptake inh
CCOc1ccc(-c2[nH]nc3c2C(c2cccnc2)C(C#N)=C(N)O3)cc1 (stereo not given)	>57	-1.6%
O=C(COC(=O)c1cc(S(=O)(=O)N2CCOCC2)ccc1O)NCC1CCCO1 (stereo not given)	>57	2.0%
O=C(OCC(=O)N(C1CCCCC1)C1CCCCC1)c1cnccn1	nt	?
COc1ccccc1NC(=O)CSc1ncnc2c1oc1ccccc12	>57	?
Cc1ccc(Cl)cc1N1CCN(C(c2ccc(C#N)cc2)c2nnnn2C2CCCC2)CC1 (stereo not given)	>57	-4.3%
COc1cc2c(C(=O)NCc3ccc4c(c3)OCO4)cn(C)c(=O)c2cc1OC	>57	?
Cc1cc(C(=O)O)ccc1-n1c(C)ccc1C	>57	?
CCN1C(=O)NC2C1N(S(C)(=O)=O)CCN2S(C)(=O)=O (stereo not given)	>57	2.5%
COc1ccc2cc(CCNC(=O)C(C)(C)C)c(=O)[nH]c2c1	>57	2.2%
CC(=O)c1c(C(C)=O)c(C)n(Cc2ccc3c(c2)OCO3)c1C	>57	10.9%
COc1ccccc1NC(=O)N1CCN(c2ccc3nncn3n2)CC1	>57	6.3%
CC(C(=O)N1CCN(c2ccccc2)CC1)N1C(=O)C2CC=CCC2C1=O (stereo not given)	>57	?
Cc1ccc(CNC(=O)c2cccc(-n3cnnn3)c2)cc1	>57	-16.6%
Cc1nc2c(-c3ccc(F)cc3)c(C)nn2c(C)c1CCC(=O)NC(C)CCc1ccco1 (stereo not given)	>57	-5.6%
CCn1c(SCC(=O)NCc2cccs2)nnc1-c1cccs1	>57	4.9%
CC1(C)Cc2c(sc3nc(-c4cccs4)n(N)c(=O)c23)CO1	>57	?
Cn1c2ccccc2c(=O)n2c(=O)c3ccccc3cc12	>57	12.7%
CCCN1C(=O)c2cc(C(=O)NC3CCCCCC3)ccc2C1O (stereo not given)	>57	-3.7%
CN(CC(=O)N1CCc2ccccc21)S(=O)(=O)c1cccs1	>57	-5.0%
O=C(NCCCN1CCCC1=O)c1cccc(C(F)(F)F)c1	>57	2.5%

An excerpt of these results, with bars between the fields:
smiles | Prx2 Sm inh | LT uptake inh
CC1(C)Cc2c(sc3nc(-c4cccs4)n(N)c(=O)c23)CO1 | >57 | ?
Cn1c2ccccc2c(=O)n2c(=O)c3ccccc3cc12 | >57 | 12.7%

Back to the main list; the three compounds before the break are reprinted first.
SMILES	Prx2 Sm inh	LT uptake inh
CCCN1C(=O)c2cc(C(=O)NC3CCCCCC3)ccc2C1O (stereo not given)	>57	-3.7%
CN(CC(=O)N1CCc2ccccc21)S(=O)(=O)c1cccs1	>57	-5.0%
O=C(NCCCN1CCCC1=O)c1cccc(C(F)(F)F)c1	>57	2.5%
Cc1ccc2c(c1)N(Cc1ccccn1)C(=O)C(C)O2 (stereo not given)	>57	-25.6%
CCC(C)n1cnc2c(c1=O)c1nc3ccccc3nc1n2Cc1ccccc1OC (stereo not given)	>57	nt
CCOC(=O)CSc1nnc(Cc2cc(=O)[nH]c(=O)[nH]2)n1-c1cccc(OC)c1	>57	8.9%
CC(Sc1nc2c(c(=O)n(C)c(=O)n2C)n1Cc1cc2c(cc1Cl)OCO2)C(=O)O (stereo not given)	>57	-13.3%
CCCNC(=O)OC[C@@H]1O[C@H](CCO/N=C(\C)CCC(=O)OC[C@@H]2O[C@H](c3ccccc3)C=C[C@@H]2Oc2ccc(OC)cc2)C=C[C@@H]1Oc1ccc(OC)cc1	nt	-2.8%[1.6 µM]
CN(C)C=Nc1ncc2c3ccccc3n(Cc3ccccc3)c2c1C#N	>57	-4.2%
N#CC1=C(N)SC(N)=C(C#N)C1CCC1CCCCC1	>57	-19.1%
CCOC(=O)CN1CC23C=CC(O2)C(C(=O)NCc2ccc(C)cc2)C3C1=O (stereo not given)	>57	22.9%
COc1c(C)cccc1C(=O)Nc1ccc(N2CCN(S(C)(=O)=O)CC2)cc1	>57	-1.8%
CCOc1ccccc1NC(=O)CSc1nnnn1Cc1ccccc1	>57	-25.7%
Cc1cc(NC(=O)c2cn(C3CCCCC3)c(=O)c3c2c2ccccc2n3C)no1	>57	3.2%
Cc1ccc(C)c(NC(=O)C2CC(=O)N(C(C)C)C2)c1 (stereo not given)	>57	-12.4%
CCCOC(=O)Cc1c(O)c2ccccc2[nH]c1=O	>57	-0.6%
CCSc1nnc(NC(=O)CSc2nc(CC)nc3c2c(=O)n(C)c(=O)n3C)s1	>57	-13.7%
Cc1ccc(-c2nn3c(C)nnc3c3ccccc23)cc1S(=O)(=O)N1CCN(CCO)CC1	>57	-2.1%
O=C(CN1CCCc2ccccc21)NC(=O)NCc1ccco1	>57	8.9%
COC(=O)C1C2c3ccccc3OC1(C)N=c1s/c(=C/c3cnn(C)c3C)c(=O)n12 (stereo not given)	>57	9.3%
Cc1ccc(-c2cc(-c3ccc(Cl)cc3)c(C#N)c(N)n2)o1	>57	-1.3%
Cc1ccc(N(CC(O)CN2CCCC2)S(=O)(=O)c2ccccc2)cc1 (stereo not given)	>57	-5.9%
Cn1c(C(=O)O)cc2cc(F)ccc21	>57	-3.9%

Arranged by number of heavy atoms (high to low): some entries from above
SMILES	Prx2 Sm inh	LT uptake inh
CCC(C)n1cnc2c(c1=O)c1nc3ccccc3nc1n2Cc1ccccc1OC (stereo not given)	>57	nt
COc1c(C)cccc1C(=O)Nc1ccc(N2CCN(S(C)(=O)=O)CC2)cc1	>57	-1.8%
O=C(CN1CCCc2ccccc21)NC(=O)NCc1ccco1	>57	8.9%

(cont.)
SMILES	Prx2 Sm inh	LT uptake inh
Oc1ccc(Cl)cc1Cc1cc(Cl)ccc1O	nt	15.8µM*
O=C(NCCCN1CCC(Cc2ccccc2)CC1)C1CCC(=O)N1C1CCCC1 (stereo not given)	>57	-16.8%
CCOC(=O)c1ccc(N2C(=O)CC(N3CCN(Cc4ccccc4)CC3)C2=O)cc1 (stereo not given)	nt	0.1%
O=C(NCc1cccs1)C(Cc1ccccc1)n1cccc1 (stereo not given)	>57	-19.2%
CCOC(=O)C1CCN(CCC(=O)Nc2cccc(Cl)c2C)CC1	>57	?
Cc1nn(-c2ccccc2)c2nc(N)c(C#N)c(-c3ccc(F)cc3)c12	nt	5.01µM*
Cc1cc(NS(=O)(=O)c2ccc(NC(=O)c3ccoc3C)cc2)nc(C)n1	>57	9.1%
O=C(CCC(=O)OCCCC(F)(F)C(F)(F)F)Nc1ccccc1	nt	14.5%
CCC(C)[C@H](NC(=O)NCc1ccccc1Cl)C(=O)O (stereo not given in full)	>57	-5.2%
Cn1c(=O)c2c(nc(NCCCN3CCOCC3)n2Cc2ccc(Cl)c(Cl)c2)n(C)c1=O	>57	?
CC(O)c1c(OCc2ccccc2)ncnc1OCc1ccccc1 (stereo not given)	nt	?
Cc1ccc(SCc2nc(-c3ccccn3)no2)cc1	>57	-4.5%
CN(C)c1ccc(-c2nc(NCCc3cnc[nH]3)c3ccccc3n2)cc1	>57	?
CC1=Nn2c(nnc2-c2cc(-c3ccccc3)n[nH]2)SC1	>57	nt
Cc1c(C(=O)NCCCN2CCOCC2)sc2nc(-c3ccc(F)cc3)cn12	>57	-22.9%
COc1cc(C2C(C(C)=O)=C(C)Nc3ncnn32)ccc1O (stereo not given)	>57	2.0%
COc1ccc(NC(=O)CSc2nnc(CNc3ccc(F)cc3)o2)c(OC)c1	>57	12.3%
C/C(CCC(=O)OC[C@@H]1O[C@H](C#Cc2ccccc2)C=C[C@@H]1Oc1ccc(C)cc1)=N/OC[C@@H](C)[C@H](OCc1ccccc1)C(C)C	nt	-9.1%[1.6 µM]
COc1ccc(CCNC(=O)c2ccc3nc(-c4ccco4)c(-c4ccco4)nc3c2)cc1OC	>57	?
O=C(Oc1c(CN2CCOCC2)cc(Cl)c2cccnc12)c1ccc(F)cc1	>57	24.4%
CCN(CC)S(=O)(=O)c1ccc(Br)c(OC)c1	>57	-10.5%
COc1cc(C(=O)N2CCN(c3cc(Cl)ccc3Cl)CC2)cc(OC)c1OC	>57	?
COc1cccc(CNc2ccc(N3CCCCC3)cc2)c1OC	>57	?
COc1ccc(-c2nc3cnc(N4CCNCC4)nc3n(CCC#N)c2=O)cc1	>11.4	?
Cn1c(Cn2c(=O)sc3ccccc32)nnc1SCC(=O)NCc1ccco1	>57	0.5%
COC(=O)[C@@]1(Cc2ccccc2)[C@H]2c3cc(C(=O)N4CCCC4)n(C)c3C[C@H]2CN1C(=O)c1ccccc1	>57	?
COc1ccc(Nc2nnc(Cc3ccccc3)c(=O)[nH]2)c(OC)c1	>57	2.3%
c1nc(N2CCC3(CC2)OCCO3)c2[nH]cnc2n1	>57	-10.9%
CCOC(=O)c1cc2c(=O)n3ccccc3nc2n(Cc2ccc(Cl)cc2)c1=N	>57	?
CCCCC/C=C\C/C=C\C/C=C\C/C=C\CCCC(=O)Nc1ccc(O)cc1	>57	?
COc1cc(CO)cc(-c2cc(CO)cc(OC)c2OC)c1OC	>57	10.4%
Cc1ccc(S(=O)(=O)Oc2ccc(N=Nc3ccc(-c4ccc(N=Nc5c(O)ccc6cc(S(=O)(=O)O)cc(S(=O)(=O)O)c56)c(C)c4)cc3C)cc2)cc1	nt	15.8µM*
O=C(CN1C(=O)C2CC=CCC2C1=O)OCCN1C(=O)c2ccccc2C1=O (stereo not given)	>57	8.0%
CCCc1cc(=O)[nH]c(SCCOc2ccc(Cl)cc2)n1	>57	26.8%
Cn1ccnc1C(O)(c1nnc(-c2ccccc2)o1)C(F)(F)F (stereo not given)	>57	-6.6%
CCOC(=O)C1=C(C)Nc2nc(SCC(=O)OC)nn2C1c1cc(F)cc(F)c1 (stereo not given)	>57	-10.1%
CCCCn1c(O)c(C(CC)=NCCCN(C)C)c(=O)[nH]c1=O	>57	14.8%
CCOc1ccc(-c2nc(S(=O)(=O)c3ccccc3)c(NCc3cccnc3)o2)cc1	>57	-22.4%
CCOC(=O)C1=C(C)NC(C)=C(C(=O)OCC)C1	>57	-12.1%
CCCCCn1c(=NC(=O)c2ccco2)c(C(=O)OCC)cc2c(=O)n3ccccc3nc21	>57	?
CCN(CC)CCn1c(-c2ccccc2)nc2c(NCCOC)nc(C)nc21	nt	-8.2%
COC(=O)c1ccc(C(NC(=O)OCc2ccccc2)/C(F)=C/[C@@H](C)C(=O)NCc2ccc(OC)c(OC)c2)cc1 (stereo not given in full)	nt	-4.0%
CC(C)OC(=O)CSc1nnc(-c2ccncc2)n1N	>57	-22.0%
CCN(c1ccccc1)c1cc(NC)[n+](C)c(C)n1	>57	?
CCC(=O)Nc1c(C)nn(C(=O)CC)c1C	>57	-5.4%
NC(=O)c1c(N)sc(=S)n1CC1CCCO1 (stereo not given)	>57	4.8%
Cc1cc(C)nc(SCc2nnc(SCC(=O)Nc3ccc(C)c(C)c3)n2Cc2ccco2)n1	>57	1.9%
CSc1nc2cc(S(=O)(=O)N3CCOCC3)ccc2s1	>57	0.7%
N#Cc1ccc(CN2CCCC3(CCN(C(=O)c4cccc(F)c4)CC3)C2)cc1	>57	10.2%
Cc1occc1C(=O)N1CCC2(CC1)OCCO2	>57	-8.1%
CC(C)Oc1ccc(CNC2CCOC(C)(C)C2)cc1 (stereo not given)	>57	-9.4%
c1ccc(-c2ccccc2)cc1	nt	-2.7%
O=C(Nc1ccc(-c2nc3ccccc3[nH]2)cc1)c1ccco1	>57	-21.5%
Cc1csc(NC(=O)c2nc3nc(C)cc(C)n3n2)n1	>57	1.9%
CCOc1ccc2ccccc2c1/C=N/n1cncn1	>57	-6.2%
O=C(O)CSC1c2ccccc2C(=O)N1Cc1ccccc1 (stereo not given)	>57	-19.6%
CC12CCC(C(=O)NCC3CCCO3)(OC1=O)C2(C)C (stereo not given)	>57	?
Cc1nc(-c2ccc(S(=O)(=O)N3CCCCCC3)cc2)cs1	>57	?
O=C(CSc1nnnn1-c1cccnc1)NCc1cccs1	>57	?
O=C(CSc1nc2c(c(C(F)(F)F)n1)CCc1ccccc1-2)NCc1ccco1	>57	-3.4%
Other entries
SMILES	Prx2 Sm inh	LT uptake inh
N#Cc1c2n(c3c(=O)n(Cc4ccccc4)cnc13)CCCC2	>57	-6.2%
Cc1cc(C)n(-c2nc3ccccc3nc2N2CCN(C(=O)c3ccc(F)cc3)CC2)n1	?	?
COc1ccc(S(=O)(=O)N(CCCN2CCCC2=O)Cc2cc3cc(C)c(C)cc3[nH]c2=O)cc1	58.2*	16.1%
O=C(NCc1ccco1)c1nn(-c2ccccc2)c(=O)c2ccccc12	>57	-10.7%
Cc1noc(C)c1COc1cccc(C(=O)Oc2ccc3c(c2)OCO3)c1	>57	?
CC(C)NC(=O)N1CCC2(CC1)CCN(C(=O)c1cccn1C)CC2	>57	?
CCCc1ccc(OCC(=O)O)cc1	nt	9.6%
COc1ccc(Cl)cc1NC(=O)c1ccco1	>57	-6.8%
FC(F)(F)c1ccc2c(c1)nnn2C1CCN(Cc2nnnn2Cc2ccccc2)CC1	?	-11.1%
CN(C)c1ccc(CN(C(=O)COc2ccc(F)cc2)C2CCS(=O)(=O)C2)cc1 (stereo not given)	>57	?
Cc1ccc(C(=O)N2CCC(C(N)=O)CC2)cc1C	>57	nt
O=C(c1cccn2c(=O)c3cc(Cl)ccc3nc12)N1CCOCC1	>57	-5.0%
CC(NC(=O)c1ccccc1O)c1ccccc1 (stereo not given)	>57	-4.2%
C=CCN1C(=O)C2(/C(=C(\O)c3ccc4c(c3)OCCO4)C(=O)C(=O)N2CCCOC)c2ccccc21 (stereo not given)	>57	10.0%

This is a subset; rates above refer to the full screens.
